A488 fluor: qHTS Assay for Spectroscopic Profiling in A488 Spectral Region; compound autofluorescence, A488 spectral region, dye equivalency; hits give high values; max dye equivalency, M; actives 0.1% (n = 59,000); active = above 10 nM dye equivalent; inconclusive = 1 to 10 nM; inactive = 1 nM or less; about half of its hits are not listed in these tables;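 further: highest value over a series up to 38 µM; compound alone in buffer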
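Compounds pin-transferred into 100 mM Tris buffer, pH 8.0, incubated 15 min at room temperature, then imaged with 480 nm excitation/540 nm emission filters. Fluorescence converted to Alexa 488 dye-equivalent concentration via an on-plate six-point A488 standard curve.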
TSHR ag: qHTS Assay for Agonists of the Thyroid Stimulating Hormone Receptor | Thyrotropin receptor (Homo sapiens), P16473 | HEK293-CNG-TSHR cells (CNG channel as cAMP sensor), membrane potential dye, cAMP | Potency, µM (titrated, usually from 57.1 µM), for the others: at the highest dose activation, actives largely listed as activators | actives 0.48% (n = 73,000) | AID 926, 2007; active = well fitted activation curve of enough size with the parental cells flat; inconclusive = any curve in the parental cells; inactive = parental cells flat and receptor cells flat or falling; further: potency means the concentration at half of the fitted maximal effect; % of control where 0% means no effect; weak receptor curves with flat parental cells got no call and are not listed
Target sequence (P16473 whole entry, looked up): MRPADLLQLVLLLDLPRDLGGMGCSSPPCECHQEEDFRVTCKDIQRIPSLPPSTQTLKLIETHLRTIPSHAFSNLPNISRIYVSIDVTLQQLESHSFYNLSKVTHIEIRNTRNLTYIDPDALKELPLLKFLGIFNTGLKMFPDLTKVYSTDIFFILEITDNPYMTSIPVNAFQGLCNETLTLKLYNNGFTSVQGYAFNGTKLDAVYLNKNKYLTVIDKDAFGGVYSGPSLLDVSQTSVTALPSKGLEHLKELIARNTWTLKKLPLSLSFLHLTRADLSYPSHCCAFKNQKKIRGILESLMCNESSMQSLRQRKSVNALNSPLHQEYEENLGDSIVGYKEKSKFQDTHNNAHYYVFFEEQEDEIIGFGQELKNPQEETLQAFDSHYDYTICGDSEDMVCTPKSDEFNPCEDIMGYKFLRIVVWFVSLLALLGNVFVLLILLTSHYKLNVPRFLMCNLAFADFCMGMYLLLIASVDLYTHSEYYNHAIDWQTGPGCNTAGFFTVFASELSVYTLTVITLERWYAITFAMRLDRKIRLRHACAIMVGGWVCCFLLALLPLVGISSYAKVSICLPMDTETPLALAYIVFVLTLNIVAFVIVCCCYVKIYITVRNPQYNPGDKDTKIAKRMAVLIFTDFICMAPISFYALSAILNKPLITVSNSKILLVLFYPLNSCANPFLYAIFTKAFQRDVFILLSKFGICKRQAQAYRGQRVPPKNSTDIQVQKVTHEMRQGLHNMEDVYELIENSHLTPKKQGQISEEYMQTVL
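HEK 293 cells stably expressing TSHR and a modified CNG channel, with CNG-only parental cells as counterscreen, were preloaded 60 min at room temperature with membrane potential dye containing 100 uM RO 20-1724. Compound exposure was 30 min, and depolarization was read as fluorescence at 590 nm.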
A647 fluor: qHTS Assay for Spectroscopic Profiling in A647 Spectral Region. Compound fluorescence, A647 channel (570/671 nm), Tris buffer. max dye-equivalent concentration, M. 59,000 tested, under 10 active. AID 592, 2007; active means above 1 µM dye equivalent; inconclusive means 0.1 to 1 µM; inactive means 0.1 µM or less;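 further: values scaled relative to a standard on each plate; highest value over a series up to 38 µM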
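Spectral profiling of library compounds in pH 8.0 Tris: 15 min room-temperature incubation, single ex/em pair (570/671 nm), response normalized to Alexa 647 equivalents.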
Resorufin autofl: qHTS Assay for Spectroscopic Profiling in Resorufin Spectral Region; Compound fluorescence, resorufin region 547/598 nm, buffer; hits give high values; max dye-equivalent concentration, M; actives 0.04% (n = 59,000); active = above 10 nM dye equivalent; inconclusive = 1 to 10 nM; inactive = 1 nM or less; a few of its hits are not listed in these tables; further: highest value over a series up to 38 µM
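Intrinsic fluorescence profiled in the resorufin window (ex 547 nm, em 598 nm) after 15 min at room temperature in pH 8.0 Tris buffer (100 mM); responses normalized against a six-point resorufin standard series as dye-equivalent concentration.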
AID923: qHTS Assay for Allosteric/Competitive Inhibitors of Caspase-1: Spectroscopic Profiling in AFC Spectral Region. compound fluorescence, AFC spectral region (405/520 nm); almost no hit is shown here. Potency, µM (doses to about 57.5 µM), inactives show at the highest dose fluorescence increase, actives largely listed as activators. actives 1.1% (n = 75,000). AID 923, 2007; active means well fitted activation curve with a large enough effect; inconclusive means small, poorly fitted or top-dose-only effect;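 further: potency means the concentration at half of the fitted maximal effect; 0% is about no effect; scaled to a free AFC standard on each plate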
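Titrations up to 57 uM read every 20 sec for 3 min (405/520 nm) with 50 nM caspase 1 and 5 uM Ac-WEHD-AFC, pH 7.5 HEPES buffer. Fluorescence-vs-time intercept gave baseline, scaled against on-plate AFC standard.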
Numbers without * were called inactive; i = inactive; u = inconclusive; x = no result given; & = joins results of further samples; [ ] = another dose, or the depositor's remark.

SMILES	A488 fluor	TSHR ag	A647 fluor	Resorufin autofl	AID923
CCCCN(CC)Cc1c(C)[nH]c2ccccc2c1=O	i	u	5.1e-09	i	0.3%
CCOC(=O)N1CCN(C(=O)C2CCCN(S(=O)(=O)c3cccnc3)C2)CC1 (stereo not drawn)	x	-3%	x	x	-0.5%
COC(=O)C(C(=O)Nc1ncccn1)C1CCCCCC1 (stereo not drawn)	i	-4%	6.5e-09	i	-0.9%
COc1ccc(NC(=O)c2cnc3sccn3c2=O)cc1OC	x	u	x	x	-1.6%
CC(C)c1nnc(NC(=O)CCC(=O)N2CCN(Cc3ccccc3)CC2)s1	i	u	1.9e-08	i	-0.1%
CCc1ccc2[nH]c(=O)c(C(c3nnnn3CC3CCCO3)N3CCN4CCCC4C3)cc2c1 (stereo not drawn)	i	2%	6.4e-09	i	3.0%
O=CNCCCc1nc2ccccc2n1Cc1ccccc1	i	2%	8.7e-09	i	-0.2%
COc1ccc(N2C(=O)C3CCCN3C2c2cc(OC)c(OC)cc2OC)cc1 (stereo not drawn)	x	5%	x	x	-2.2%
COc1ccc(O[C@H]2C=C[C@@H](c3ccccc3)O[C@H]2CO/N=C2/[C@H]3O[C@@H]3[C@@H](O)[C@H]3[C@H]2CCn2c(=O)n(-c4ccccc4)c(=O)n23)cc1	x	u	x	x	-1.1%[11.5 µM]
Cc1cc(C)n(-c2nc3c(c(=O)[nH]c(=O)n3C)n2CC(O)COc2ccccc2)n1 (stereo not drawn)	i	-6%	3.2e-08	i	1.9%
CCC(=O)Nc1c(-c2ccc(OC)cc2)c(=O)c2ccccc2n1C	i	u	1e-09	i	0.0%
N#Cc1cnc(Nc2nc3ccccc3o2)nc1-c1ccccc1	i	-6%	1.6e-08	i	-1.9%

Looked up by structure from the list above (two):
SMILES	A488 fluor	TSHR ag	A647 fluor	Resorufin autofl	AID923
N#Cc1cnc(Nc2nc3ccccc3o2)nc1-c1ccccc1	i	-6%	1.6e-08	i	-1.9%
CCc1ccc2[nH]c(=O)c(C(c3nnnn3CC3CCCO3)N3CCN4CCCC4C3)cc2c1 (stereo not drawn)	i	2%	6.4e-09	i	3.0%

The listing continues.
SMILES	A488 fluor	TSHR ag	A647 fluor	Resorufin autofl	AID923
CC[C@H](C)[C@@H]1O[C@]2(CC[C@@H]1C)C[C@H]1C[C@H](CC=C(C)[C@@H](O[C@H]3C[C@H](OC)[C@H](O[C@H]4C[C@H](OC)[C@H](O)[C@H](C)O4)[C@H](C)O3)[C@@H](C)C=CC=C3CO[C@@H]4[C@@H](O)C(C)=C[C@H](C(=O)O1)[C@@]34O)O2	i	x	1.2e-09	i	-1.9%
COc1ccccc1N1CCN(C(CNC(=O)c2ccco2)c2cccnc2)CC1 (stereo not drawn)	x	7%	x	x	2.3%
Cc1c(N(C)C)c(=O)n(-c2ccccc2)n1C	i	u	1.5e-08	i	3.0%
Cc1cc(NC(=O)CCC(=O)N(c2cccnc2)C(C(=O)NC2CCCC2)c2ccccc2)no1 (stereo not drawn)	i	x	6.1e-09	i	0.2%
Cc1nc(C)n(C(=O)N(c2ccccc2)c2ccccc2)n1	i	u	2.4e-08	i	0.1%
COc1ccc(/C=C(\C#N)C(N)=O)cc1OC	i	3%[11.4 µM]	3.6e-09	i	0.6%[11.5 µM]
O=C(Nc1nnc(C2CCCCC2)s1)c1cccs1	i	-13%	3.9e-08	i	1.7%
Cc1cccc(-c2nnc(SCC#N)n2-c2ccccc2)c1	i	13%	1.5e-09	i	0.6%
O=C(O)CN(CCO)CCN(CC(=O)O)CC(=O)O	x	3%&2%	x	x	1.1%&5.0%
CCOc1ccc(NS(=O)(=O)c2ccc(NS(C)(=O)=O)cc2)cc1	x	5%	x	x	2.0%
CCCSc1nnc2n(Cc3ccccc3)c(=O)c3c4c(sc3n12)CCC4	i	x	1e-09	i	x
CCN1CCCC1CNC(=O)c1c(O)c2c([nH]c1=O)CCCC2 (stereo not drawn)	i	u	1e-09	i	0.3%

The last seven entries of the part before open the next one.
SMILES	A488 fluor	TSHR ag	A647 fluor	Resorufin autofl	AID923
COc1ccc(/C=C(\C#N)C(N)=O)cc1OC	i	3%[11.4 µM]	3.6e-09	i	0.6%[11.5 µM]
O=C(Nc1nnc(C2CCCCC2)s1)c1cccs1	i	-13%	3.9e-08	i	1.7%
Cc1cccc(-c2nnc(SCC#N)n2-c2ccccc2)c1	i	13%	1.5e-09	i	0.6%
O=C(O)CN(CCO)CCN(CC(=O)O)CC(=O)O	x	3%&2%	x	x	1.1%&5.0%
CCOc1ccc(NS(=O)(=O)c2ccc(NS(C)(=O)=O)cc2)cc1	x	5%	x	x	2.0%
CCCSc1nnc2n(Cc3ccccc3)c(=O)c3c4c(sc3n12)CCC4	i	x	1e-09	i	x
CCN1CCCC1CNC(=O)c1c(O)c2c([nH]c1=O)CCCC2 (stereo not drawn)	i	u	1e-09	i	0.3%
Cc1ccc(-c2nnc(CSc3nnc4c5c(C)c(C)sc5nc(C(C)C)n34)o2)cc1	i	13%	5.7e-09	i	-0.4%
CC(C)CCOC(=O)C1C2C=CC3(CN(Cc4cccs4)C(=O)C13)O2 (stereo not drawn)	x	5%	x	x	-0.2%
O=P(O)(O)c1ccccc1OCc1ccccc1	i	3%	7.4e-09	i	1.4%
O=C(CSc1nnc(-c2ccco2)n1Cc1ccccc1)OC1CCCCC1	i	u	3.3e-08	i	-1.8%
CCn1c(=O)n(CC)c2cc(S(=O)(=O)N3CCc4ccccc43)ccc21	i	x	3.7e-09	i	2.9%
CC(C)NC(=O)CSc1nc2ccccc2n1-c1ccccc1	i	u	1.9e-08	i	-1.5%
O=C(CN1CCCC1)N1CCCc2c1c(=O)oc1ccc(OCc3ccccc3)cc21	i	u	1e-09	i	1.5%
O=C(NCCN1CCCC1)C1CCN(S(=O)(=O)N2CCC3(CC2)OCCO3)CC1	i	u	2.1e-08	i	1.2%
O=S(=O)(c1ccc(-c2csc(-c3cccnc3)n2)cc1)N1CCCC1	i	4%	5.3e-09	i	-1.2%
CC1(C)NC(=O)N(CC(O)CN(Cc2ccccc2)Cc2ccccc2)C1=O (stereo not drawn)	i	16%	1.2e-08	i	1.3%
O=S(=O)(c1ccc(F)c(F)c1)N1CCN(Cc2ccc3c(c2)OCO3)CC1	i	9%	5e-09	i	-0.3%
COc1ccc(Cn2c(=O)[nH]c3cc(C(=O)NCc4ccc5c(c4)OCO5)ccc3c2=O)cc1	i	23%	1.8e-09	i	1.6%
O=C(NCC1CCCO1)c1cnn2c1NC(c1ccccc1)CC2C(F)(F)F (stereo not drawn)	i	-3%	1.3e-08	i	3.2%
CN(C(=O)c1ccccn1)c1nnc(-c2ccccn2)s1	i	5%	1e-09	i	1.9%
C/C(CCC(=O)OC[C@@H]1O[C@H](C#Cc2ccccc2)C=C[C@@H]1Oc1ccc(C)cc1)=N/O[C@@H](C)CN1CCCc2nc(C)c(C)cc21	x	u	x	x	4.7%[11.5 µM]
O=S(=O)(c1ccc(Cl)s1)N1CCN(Cc2ccccc2)CC1	i	8%[11.4 µM]	2.9e-08	i	0.9%
c1ccc(-n2cccc2CNC2CCCCC2)cc1	i	u	4.9e-09	i	-2.0%
COc1ccc(Cn2nnnc2C(C(C)C)N2CCN(c3ccccc3OC)CC2)cc1 (stereo not drawn)	i	u	1e-09	i	0.1%
C#C[C@]1(O)CC[C@H]2[C@@H]3CCc4cc(OC)ccc4[C@H]3CC[C@@]21C	x	0%	x	x	-4.0%
Cc1cc(N)c(-n2cc3c(=O)n(C)c(=O)n(C)c3c2)cc1C	i	1%	2.7e-09	i	16%
COCc1cc(C)nc(Nc2cc(C)ccc2C)c1C#N	x	20%	x	x	5.1%
O=C(CSCc1ccccc1)N1CCN(Cc2ccc3c(c2)OCO3)CC1	i	u	2.1e-08	i	0.6%
CCOC(=O)c1cnc(N2CCOCC2)[nH]c1=O	i	-2%	2.8e-08	i	1.3%
CCc1c(O)nc(SCC(=O)Nc2ccc(C)cc2)n(C2CCCCC2)c1=O	i	-5%	6.5e-09	i	-2.4%
CC(C)(C)NS(=O)(=O)c1ccc(CCC(=O)N2CCCCC2)cc1	i	u	1e-09	i	-0.8%
COc1cc(/C=C\C(=O)N2CCC=CC2=O)cc(OC)c1OC	i	-26%[25.6 µM]	1.6e-09	i	-0.4%[25.7 µM]
Cc1cccc(NCC(O)Cn2cnc3c2c(=O)n(C)c(=O)n3C)c1 (stereo not drawn)	i	1%	1e-09	i	4.8%
C=C(C)Cn1c(=O)c2c(nc3n2CCN3c2cccc(Cl)c2C)n(C)c1=O	i	-2%	4e-08	i	-1.1%
CN(CCNC(=O)c1ccc(/C=N/O)nc1)Cc1ccccc1	i	x	1e-09	i	x
COc1ccc(-c2nsc(SCC(=O)Nc3cc(C)on3)n2)cc1	i	-3%	2e-08	i	0.2%
COc1ccc2ccccc2c1CN1CCCC(CO)C1 (stereo not drawn)	x	20%	x	x	1.3%
C[C@H](CO)NC(=O)[C@H](C)[C@@H]1C[C@@]1(C)[C@@H](NC(=O)OCc1ccccc1)c1ccccc1	x	0%	x	x	0.2%
CC1(C)COCN1COC1CCCCC1	i	-1%[11.4 µM]	8.7e-09	i	0.9%[11.5 µM]
CCN(CC)CCOC(=O)c1cccc(Cl)c1	i	4%	1e-09	i	0.2%
O=C(COC(=O)c1ccc(Br)c(S(=O)(=O)N2CCOCC2)c1)NCC1CCCO1 (stereo not drawn)	i	0%[11.4 µM]	6.5e-09	i	-1.2%
Brc1c(CSc2nncn2-c2ccccc2)nc2ncccn12	i	-6%	1e-09	i	4.2%
COc1cccc(Cn2c(=O)c(CCc3ccccc3)nc3cnc(OC)nc32)c1	i	u	1.3e-08	i	0.6%
COc1cc(C(c2sc3nc(C)nn3c2O)N2CCc3ccccc3C2)cc(OC)c1OC (stereo not drawn)	x	1%	x	x	-2.5%
Cc1ccc(S(=O)(=O)c2c(C)nn(C(C)(C)C)c2OC(=O)c2ccco2)cc1	i	10%	2.5e-08	i	0.3%
O=C(CCSc1nnc(-c2ccncc2)o1)Nc1ccccc1	i	-1%	1.5e-09	i	0.1%
CC(=O)N1C(C(=O)O)CSC1c1ccc(C)cc1 (stereo not drawn)	x	8%	x	x	-2.7%
Cc1c(C(=O)N2CCN(C)CC2)oc2ccc(S(=O)(=O)N3CCOCC3)cc12	i	x	2.2e-08	i	0.5%
O=C(O)c1ccc(NS(=O)(=O)c2cccc3ccccc23)cc1	x	u	x	x	1.5%
COC(=O)c1c(C)[nH]c(C(=O)OCc2ccc(F)cc2)c1C	i	x	2.4e-09	i	x
O=C(NCCCN1CCCC1=O)c1cccc(N2CCCC2=O)c1	i	-2%	2.1e-09	i	3.2%
COc1ccccc1N=C(C)C1=C(O)CSC1=O	x	0%	x	x	6.4%
CCCc1nnc(SCC(=O)Nc2ccc(OCC)cc2)n1N	i	x	4.3e-08	i	0.1%
Cc1nnc(NC2=NCCC2)o1	i	-13%	1e-09	i	0.4%
CCOC(=O)C1CCN(CC(=O)Nc2c(C(=O)OC)[nH]c3ccc(Cl)cc23)CC1	i	u	9.1e-09	i	-2.1%
COc1cccc(-c2ccc(=O)n(CC(=O)NCCN3CCOCC3)n2)c1	i	-4%	5.6e-09	i	1.8%
CN=C1SC(CC(=O)Nc2ccc(N3CCOCC3)cc2)C(=O)N1C (stereo not drawn)	i	-6%	3.9e-09	i	-0.5%
CC(C)(C)C1=C(C#N)C(c2ccc3c(c2)OCO3)C(C#N)=C(N)O1 (stereo not drawn)	i	3%	3.7e-08	i	2.5%
CCn1c2ccccc2c2nnc(SCc3ccc(C(=O)OC)o3)nc21	i	u	2.9e-09	i	0.6%

Source: PubChem BioAssay

The list is partial; the hit share may differ from the screen's.
